Screens from PubChem.
VDR inhibitor: inhibitors of human vitamin D receptor; Potency, µM, inactives show max response, negative = inhibition, most hits filed as inhibitors; VDR-SRC2-3 peptide fluorescence polarization, 2 h; 0.93% of 400,000 active; P11473; AID 504847; active = well fitted inhibition curve with a large enough effect; inconclusive = small, poorly fitted or top-dose-only effect, or another doubt; inactive = no such curve, though single readings can be large or run the other way; note: series mostly up to about 120 µM
Target sequence (P11473 whole entry, looked up): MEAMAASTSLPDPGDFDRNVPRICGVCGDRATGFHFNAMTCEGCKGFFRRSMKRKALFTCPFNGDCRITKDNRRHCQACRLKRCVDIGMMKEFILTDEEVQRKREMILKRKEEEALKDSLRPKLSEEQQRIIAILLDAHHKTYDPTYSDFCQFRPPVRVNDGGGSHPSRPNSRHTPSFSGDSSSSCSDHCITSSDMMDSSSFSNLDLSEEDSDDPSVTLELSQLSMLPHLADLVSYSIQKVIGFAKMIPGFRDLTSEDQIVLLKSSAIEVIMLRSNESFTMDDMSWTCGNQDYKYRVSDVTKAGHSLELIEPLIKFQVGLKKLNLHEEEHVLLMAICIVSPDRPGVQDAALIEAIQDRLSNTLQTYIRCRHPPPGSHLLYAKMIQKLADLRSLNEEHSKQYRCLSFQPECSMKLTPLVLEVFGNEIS
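The screen uses fluorescence polarization to detect compounds that interfere with recruitment of the SRC2-3 coactivator peptide to VDR; plates are read after 2 h at room temperature.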
* = called active by the depositor; u = inconclusive; & = joins results of further samples; [ ] = remark or other dose. % is set by controls: 0 for no effect and ±100 for the full control effect; potency is the fitted concentration of half-maximal effect.

VDR inhibitor,SMILES
-29.9%,CCCCOC(=O)C(C#N)c1nc2ccccc2nc1N1CCN(Cc2ccc3c(c2)OCO3)CC1 (stereo not drawn)
-1.1%,COc1ccccc1-c1sc2cc3c(cc2c1C#Cc1cncn1C)OCO3
5.1%,COc1cc(CNC(=O)c2cc3n(n2)CCCN(Cc2cccc(F)c2)C3=O)cc(OC)c1OC
-5.8%,O=C(CCn1nnc2ccccc21)N1CCN(c2ccccc2)CC1
-14.9%,CC(C)OP(=O)(OC(C)C)C(Nc1ccccc1)c1ccccc1C(F)(F)F (stereo not drawn)
-11.9%,O=C(CSc1nnnn1C1CCCC1)Nc1ccccc1F
-24.2%,Cc1ccc(-n2nnnc2SCC(=O)NCC2(N3CCOCC3)CCCCC2)cc1
9.4%,Cc1ccc(N(C)C(=O)n2cnc3ccccc32)cc1
-3.8%,COc1ccc(OC)c(NC(=S)N(CCc2c(C)[nH]c3ccccc23)Cc2cccs2)c1
-17.9%,O=C(CCc1nnc(CCCc2ccccc2)o1)NCCc1ccccc1
-17.2%,CN1CCN(C(=O)c2ccccc2NC(=O)c2ccccc2Br)CC1
14.7%,COc1ccc(C(=O)Nc2ccc3c(c2)nc(CN2CCCC2)n3C)cc1
-10.1%,COc1ccccc1NC(=O)Nc1ccc(N2CCOCC2)cc1
44.7µM*,Nc1cc(Nc2ccc(Br)cc2)nc(N)n1
30.8%[activator],CCCCc1ccc(-c2csc(/C(C#N)=C\c3ccc(C)o3)n2)cc1
4.7%,Cc1cc(C)cc(N(C(=O)c2cccs2)C2C=CS(=O)(=O)C2)c1 (stereo not drawn)
3.0%,O=CN1CCCN(Cc2nc(-c3cccc(Cl)c3)no2)CC1
-18.7%,NS(=O)(=O)c1cccc(NC(=O)CCS(=O)(=O)c2ccc(Cl)cc2)c1
-6.4%,Nc1ccc(N2CCN(c3ccc(Cl)c(Cl)c3)CC2)cc1
-2.1%,Cc1cccc(/C=N/Nc2nncc3ccccc23)c1
4.0%,CN(CC(=O)Nc1ccc(F)cc1)C(=O)c1cc([N+](=O)[O-])ccc1N1CCOCC1
-10.4%,O=S(=O)(NCc1ccco1)c1cnc(Cl)c(Br)c1
-12.9%,O=[N+]([O-])c1cc(C(F)(F)F)ccc1NC1CCN(Cc2ccccc2)CC1
-23.7%,C=Cc1ncc(OC)c2c1[nH]c1ccccc12
-11.2%,CCOc1ccccc1NS(=O)(=O)c1cc2c3c(c1)C(C)C(=O)N3CCC2 (stereo not drawn)

Next part; the last 4 above are carried over.
VDR inhibitor,SMILES
-10.4%,O=S(=O)(NCc1ccco1)c1cnc(Cl)c(Br)c1
-12.9%,O=[N+]([O-])c1cc(C(F)(F)F)ccc1NC1CCN(Cc2ccccc2)CC1
-23.7%,C=Cc1ncc(OC)c2c1[nH]c1ccccc12
-11.2%,CCOc1ccccc1NS(=O)(=O)c1cc2c3c(c1)C(C)C(=O)N3CCC2 (stereo not drawn)
-4.9%,CCCN(/C=N/c1sc2c(c1C#N)CCCCC2)CCC
8.4%,CCCn1c(SCC(=O)N2CCCc3ccccc32)nnc1-c1ccco1
13.2%,O=C(Nc1ccc2oc(-c3ccccc3F)nc2c1)c1ccccc1F
4.8%,Cc1c(CNC(=O)c2cnn3c2NC(c2ccccc2)CC3C(F)(F)F)cnn1C (stereo not drawn)
-10.2%,CN(CC(=O)Nc1cccc(F)c1)C(=O)CCCNC(=O)c1ccc(Cl)cc1
-2.0%,COc1ccc(C)cc1S(=O)(=O)N1CCCC(C(=O)N2CCOCC2)C1 (stereo not drawn)
-19.0%,O=C(CNC(=O)C1CCCCC1)OCC(=O)c1ccccc1
3.4%,COc1cccc(CN(C(=O)/C=C/c2ccco2)C2CCS(=O)(=O)C2)c1 (stereo not drawn)
-1.6%,Cc1ccccc1/C=C/C(=O)N1CCOCC1
-4.7%,Cc1ccc(C(=O)NCCn2cc(SCC(=O)Nc3cc(C)on3)c3ccccc32)cc1
-6.5%,COc1cc(NC(=S)NCCCN2CCOCC2)cc(OC)c1
u,O=C(CN1C(=O)/C(=C/c2cccc(Br)c2)SC1=S)NCCCN1CCOCC1
11.1%,Cc1cccc(CN2CCN(c3nc4nonc4nc3NC3CC3)CC2)c1
8.3%,Cc1cc(C(=O)N/N=C/c2cccnc2)c(C)o1
-6.0%,NC(=O)CC(NC(=O)Cc1ccc(Br)cc1)c1ccc(NCCN2CCCCC2)c([N+](=O)[O-])c1 (stereo not drawn)
4.5%,CCOC(=O)Cc1csc(NC(=O)c2cccs2)n1
-26.3%,CC1CCN(c2[nH]c(=S)c(C#N)c3c2CCCC3)CC1
-3.1%,O=C(Cc1ccccc1)NCc1ccc2c(c1)OCO2
2.0%,CCCCC(CC)COS(=O)(=O)O (stereo not drawn)
-13.6%,CC1Cc2nc(SCC(N)=O)n(C)c(=O)c2S1 (stereo not drawn)
-10.4%,COc1ccc(CN(C)CC(=O)Nc2cccc(S(N)(=O)=O)c2)c(OC)c1OC
-11.2%,CCOC(=O)C(CCCCOc1ccc([N+](=O)[O-])cc1)C(=O)OCC
26.7%,Cc1nc(Nc2cccc(C(C)O)c2)c2nnn(Cc3ccc(F)cc3)c2n1 (stereo not drawn)
5.4%,CCn1cc(C(=O)NCCCOC)c(=O)c2cc(S(=O)(=O)N(C)C)ccc21
14.9%,CC(C)N(Cc1ccccc1)C(=O)Cn1ncc2c3ccccc3n(Cc3ccccc3)c2c1=O
-15.5%,COc1ccc(S(=O)(=O)Nc2ccccn2)cc1C
17.5%,O=C(N/N=C/c1ccc(Cl)cc1)C1CC12CCC2 (stereo not drawn)
u,CN(C)CC1CCC/C(=C\c2ccc(OC(=O)c3ccc(Cl)cc3)cc2)C1=O (stereo not drawn)
-1.1%,O=C(NCCc1ccccc1)c1ccc(CSc2nc3cccnc3n2Cc2ccccc2F)cc1
-9.3%,CC(C)n1nccc1NC(=O)Nc1ccccc1
-11.0%,O=C(COC(=O)c1cccnc1Cl)Nc1ncc(Cl)cc1Cl
-6.8%,Cc1nc(-c2ccc(Cl)cc2)sc1C1(C)CC(c2ccccc2Br)=NO1 (stereo not drawn)
-10.3%,COc1ccc(NC(=O)c2cc(S(=O)(=O)N3CCCCC3)ccc2C)cc1S(=O)(=O)N1CCOCC1
-5.7%,COc1ccc(C(=O)n2nc(-c3ccco3)nc2NCc2cccs2)cc1OC
30.3%[activator],O=[N+]([O-])c1ccc(/C=C/c2ccc3cccc(O)c3n2)cc1
0.9%,CC(NS(=O)(=O)c1c(N)n(C)c(=O)n(C)c1=O)c1ccccc1 (stereo not drawn)
-4.2%,COCCN(CCOC)C(=O)COC(=O)c1ccc(Cl)c(S(=O)(=O)N(C)c2ccccc2)c1
1.7%,C=CCn1c(Oc2ccccc2)nc2c1c(=O)n(C)c(=O)n2C
-9.1%,Cc1csc(NC(=O)c2ccc(C)o2)n1
6.6%,COc1ccc(C(=O)N[C@H](C(=O)NCc2ccccc2)C(C)C)cc1
-0.2%,C(=C/c1ccnc2nc(SC/C=C/c3ccccc3)nn12)/c1ccccc1
-12.2%,COc1ccc(C(=O)O/N=C(\C)c2cnccn2)cc1
6.0%,CC(=O)N1CCN(c2ccc(NC(=O)C(C)Oc3ccc(Cl)cc3Cl)cc2)CC1 (stereo not drawn)
-5.0%,Cc1[nH]c(C)c2c(=O)n(Cc3ccccc3Cl)ncc12
5.5%,Cc1cc(=O)[nH]c(SCC(=O)NCCc2ccccc2)n1
-12.2%,CC(C)(C)c1[nH]nc2c1C(C1C=CCCC1)C(C#N)=C(N)O2 (stereo not drawn)
-11.0%,Cc1ccccc1OCC(=O)NN1Cc2ccccc2C1=N
-1.6%,CCOC(=O)C1(Cc2cccc(OC)c2)CCN(Cc2cnc(SC)nc2)CC1
39.8µM*,Clc1ccccc1-c1nc(NC2CCNCC2)c2ccccc2n1
-19.6%,Cc1ccc(-n2nc(C)c(C3(O)C(=O)N(C(C)C)c4ccccc43)c2N)cc1 (stereo not drawn)

Next compounds follow:
VDR inhibitor,SMILES
-4.1%,CC(C)CNC(=S)N1CCN(C)CC1
16.7%,COc1cc(NC(=O)c2nc(-c3ccc(Cl)cc3)n3c2CCCCC3)cc(OC)c1OC
-1.2%,O=C(CN1C(=O)C2CC=CCC2C1=O)NC1=NCCS1 (stereo not drawn)
10.3%,COc1ccc(N(C)C(=O)CCn2cnc3onc(-c4ccc(F)cc4)c3c2=O)c(OC)c1
1.1%,CN1CCN(C(=O)C2=C[C@@H](C(C)(C)C)C[C@@H](OCc3ccc(CO)cc3)O2)CC1
4.3%,CC(C)NC(=O)CSc1nnc(-c2ccco2)n1N
-19.0%,O=C(NCN1CCCCC1)c1cccnc1
0.1%,N/C(Cc1ccc(Cl)cc1Cl)=N\OC(=O)Cc1ccccc1
-0.3%,Cc1ccc(NCC(=O)N/N=C/c2ccc(OC(=O)c3ccco3)cc2)cc1
4.2%,CN(C)c1ccc(C(=O)OCC(=O)NC2CCCCCC2)cc1
-5.1%,O=C(COC(=O)c1ccco1)NCc1ccccc1Cl
1.2%,COCCCNC(=O)CSc1nc(-c2ccccc2)[nH]c1-c1ccc(C)cc1
15.3%,Cc1cccc(NC(=O)c2ccc(NC(=O)c3ccccc3Br)cc2)c1
-5.6%,O=C1CC(N2CCCCCC2)C(=O)N1c1ccc(F)cc1 (stereo not drawn)
4.3%,CCOc1cccc(C(=O)Nc2cccc(-c3nnc(-c4ccccc4)o3)c2)c1
0.7%,CCCCN1CCc2nc(N3CCN(C)CC3)ncc2C1
10.1%,COc1cccc(NC(=O)Nc2nc(SC(C)(C)C)ns2)c1
-10.9%,CCOc1ccc(CNS(=O)(=O)c2ccc3c(c2)CC(=O)N3C)cc1
-18.1%,O=C(N/N=C/c1cn(-c2cccs2)nc1-c1ccccc1)c1ccccc1Br
-5.2%,CC(=O)c1c(C)[nH]c(C(=O)OCC(=O)Nc2sc3c(c2C#N)CCCC3)c1C
6.2%,CN(C)c1ccc(CN(C(=O)COc2ccc(Br)cc2)C2CCS(=O)(=O)C2)cc1 (stereo not drawn)
-27.1%,N/C(=N\OC(=O)c1ccc2c(c1)OCO2)c1cccnc1
7.6%,COc1ccccc1NC(=O)CCc1nc(-c2cccs2)no1
u,CN1C(=O)N(C)c2ccc(Br)c3cccc1c23
-4.1%,CCn1nc(C)c(CNC(=O)C2CCC(=O)N(Cc3cccc(F)c3)C2)c1C (stereo not drawn)
17.9%,CN1c2ccccc2Oc2c(c(=O)n(C)c(=O)n2C)C1c1cccc([N+](=O)[O-])c1 (stereo not drawn)
20.6%,CC1CCN(S(=O)(=O)c2ccc3c(ccc(=O)n3CC(=O)Nc3cccc(F)c3)c2)CC1
-10.9%,COc1ccc(-c2nc3cnc(Nc4cccc(OC)c4)nc3n(C[C@H]3CCCO3)c2=O)cc1
0.7%,O=S(=O)(NCC(c1cccnc1)N1CCOCC1)c1ccc(Cl)cc1 (stereo not drawn)
0.4%,Cc1ccccc1-c1nc(S(=O)(=O)c2ccccc2)c(NCCCN2CCOCC2)o1
0.0%&-11.3%,Nc1nc(SCc2ccccc2)c2[nH]cnc2n1
-16.2%,CCOC(=O)N1CCC(NC(=O)c2ccc(CS(=O)c3cccc(C)c3)o2)CC1 (stereo not drawn)
4.0%,COc1ccc2cc(-c3[nH]ncc3CN3CCCN(c4ccccc4)CC3)ccc2c1
2.5%,O=C(CN1C(=O)c2ccccc2S1(=O)=O)NCc1ccc(F)cc1
2.9%,C[n+]1c2n(c3ccccc31)N=C(c1cc(C(C)(C)C)c(O)c(C(C)(C)C)c1)CS2
-13.4%,C#CCN1N=C(c2ccc(C)cc2)CSC1=O
27.8%,N#CCc1ccc(C(=O)c2ccccc2F)s1
-0.2%,COc1ccc(CNC(=O)c2cc3c(=O)n(Cc4ccc(OC)cc4)ccc3nc2C)cc1
-3.4%,Cc1ccc(-n2ncc3c(=O)n(CC(=O)NC4CCCC4)cnc32)cc1C
8.3%,O=C(c1ccccc1)c1ccccc1NC(=O)c1ccccc1C(=O)O
5.6%,O=C(COc1ccccc1Cl)NCCCNC(=O)c1cnccn1
-3.9%,Cc1ccc(C)c(CNS(=O)(=O)c2c(C)[nH]c(C)c2C(=O)N2CCCC2)c1
-8.4%,COc1cccc(NC(=O)C2CCN(S(=O)(=O)c3cccc4nonc34)CC2)c1
5.4%,Cn1cnc2nc3n(c2c1=O)CCC3
-12.5%,Oc1ccc(NC(=S)Nc2ccc(O)cc2)cc1
-11.4%,COc1cc(-c2nc3ccccn3c2N)ccc1O
12.1%,CCn1c(SCC(=O)Nc2ccccc2OC)nc2ccccc2c1=O
4.1%,O=C(Nc1cc(=O)[nH]c2ncnn12)c1ccc(Cl)cc1Cl

Retrieved one by one from the entries so far:
VDR inhibitor,SMILES
-0.2%,COc1ccc(CNC(=O)c2cc3c(=O)n(Cc4ccc(OC)cc4)ccc3nc2C)cc1
-10.9%,COc1ccc(-c2nc3cnc(Nc4cccc(OC)c4)nc3n(C[C@H]3CCCO3)c2=O)cc1
2.5%,O=C(CN1C(=O)c2ccccc2S1(=O)=O)NCc1ccc(F)cc1
-11.4%,COc1cc(-c2nc3ccccn3c2N)ccc1O
-12.5%,Oc1ccc(NC(=S)Nc2ccc(O)cc2)cc1
-3.9%,Cc1ccc(C)c(CNS(=O)(=O)c2c(C)[nH]c(C)c2C(=O)N2CCCC2)c1
8.3%,O=C(c1ccccc1)c1ccccc1NC(=O)c1ccccc1C(=O)O

This is a subset (hit frequency here may not be typical).
